# TRPML1 blocker: human mucolipin-1 channel inhibition; TRPML1-inducible cells, Ca2+ dye fluorescence, FDSS; hits give low values; inhibition of EC80 agonist-evoked calcium signal; activity change, negative = inhibition, % (concentration not given with the values); 390,000 tested, 0.02% active; AID 624415; in the data active means activity change below about -50%; inconclusive means about -30% to -50%; inactive means above about -30%;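 also: stimulus is agonist 54-4 at its EC80 concentration; % is scaled to controls: 0 for no effect and ±100 for the full control effect; compound concentration not given in the record; the text of the record puts the active cut at -80%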
# Target sequence (Q9GZU1 whole entry, looked up): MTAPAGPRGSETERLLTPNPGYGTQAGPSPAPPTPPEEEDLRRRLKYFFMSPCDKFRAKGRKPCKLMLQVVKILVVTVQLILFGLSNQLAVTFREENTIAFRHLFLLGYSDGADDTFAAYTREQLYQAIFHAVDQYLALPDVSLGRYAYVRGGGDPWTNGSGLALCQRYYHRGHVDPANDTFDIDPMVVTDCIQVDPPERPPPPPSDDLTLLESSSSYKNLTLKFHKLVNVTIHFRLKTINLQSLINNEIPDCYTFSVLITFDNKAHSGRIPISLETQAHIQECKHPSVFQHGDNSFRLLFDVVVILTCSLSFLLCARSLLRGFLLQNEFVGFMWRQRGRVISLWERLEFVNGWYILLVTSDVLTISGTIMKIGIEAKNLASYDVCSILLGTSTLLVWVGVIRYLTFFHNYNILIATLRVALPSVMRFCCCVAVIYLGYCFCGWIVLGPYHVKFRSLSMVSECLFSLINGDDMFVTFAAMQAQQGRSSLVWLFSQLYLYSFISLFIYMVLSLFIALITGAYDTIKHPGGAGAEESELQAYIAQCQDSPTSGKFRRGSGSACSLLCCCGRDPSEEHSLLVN
#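 Calcium fluorescence in TRPML1-DL cells induced overnight with Tet: a 110 s read after compound pin addition, then a 110 s antagonist read after challenge with 54-4 at 4 uM final (EC80).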
# Sfp inh: blocks B. subtilis Sfp PPTase activity; Q9F4F7; Biochemical Sfp PPTase activity, qHTS; Potency, µM, without a hit: max response, negative = inhibition, hits mostly inhibitors; 310,000 tested, 3.5% active; active = well fitted inhibition curve with a large enough effect; inconclusive = small, poorly fitted or top-dose-only effect, or another doubt; inactive = no such curve, though single readings can be large or run the other way;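 also: the enzyme is Sfp with the accession as filed and its product quenches rhodamine fluorescence; potency is read from the fitted curve at half-maximal effect; 0% = enzyme reaction without inhibitor and -100% = no enzyme wells; top concentration of the series not given in the record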
#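 Sfp 15 nM + cpd, 15 min RT; start w/ rhodamine-CoA 5 uM, BHQ-2-YbbR 12.5 uM (final); 50 mM Hepes pH 7.6, 10 mM MgCl2, 0.01% NP-40, 0.01% BSA; read 525/598 nm at 0 and 30 min.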
# gsp ag: gsp mutant agonism | gsp mutant cells, cAMP HTRF, 30 min; control for the full effect not named in the record | Potency, µM (top dose mostly 76.9 µM), inactives show at the highest dose activation (cAMP increase), hits mostly activators | 340,000 tested, 0.13% active; active = well fitted activation curve with a large enough effect; inconclusive = small, poorly fitted or top-dose-only effect, or another doubt; inactive = no such curve, though single readings can be large or run the other way; cell line not stated here;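 also: phosphodiesterase inhibitor Ro 20-1724 added with compounds to block cAMP breakdown; potency is read from the fitted curve at half-maximal effect; nearly all actives have a fitted effect of over 60% in size; about a fifth of the inactives were tested at one dose only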
#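 Cells stably selected in G418 were plated at 2000/well, grown 16-24 hr, then given compounds in DMSO with the PDE inhibitor […] (300 uM solution added) for 30 min at 37C; cAMP was read by HTRF.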
# gsp antagonist: antagonists of gsp mutant (McCune-Albright syndrome); gsp-mutant cells, cAMP HTRF, 30 min; control for the full effect not named in the record; Potency, µM (titrated, usually from 76.9 µM), without a hit: at the top dose activity change, negative = inhibition, hits mostly inhibitors; 340,000 tested, 0.4% active; active = falling curve of any shape with a large fitted effect; inconclusive = falling curve, mostly with a smaller effect; inactive = flat or rising curve; cell line not stated here;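 also: intracellular cAMP measured with PDE inhibitor Ro 20-1724 present during compound exposure; potency is read from the fitted curve at half-maximal effect; % is scaled to controls: 0 for no effect and ±100 for the full control effect; nearly all actives have a fitted effect of over 65% in size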
#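 Cells, 2000/well, grown 16–24 h in DMEM 10% FBS with 0.5 mg/ml G418, then compounds plus […] (300 uM addition stock), 30 min at 37C. cAMP read by HTRF (cAMP-d2 and anti-cAMP antibody-K in lysis buffer) after 30 min RT.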
# Menin-MLL FL inh: menin-MLL binding inhibition, fluorescein peptide; FP activity change, % at 61.4 µM; Fluorescence polarization, fluorescein-MLL peptide displacement from menin; AID 1766; 290,000 tested, under 10 active; inconclusive = falling polarisation curve, or a change in total fluorescence; inactive = total fluorescence flat and polarisation flat or rising; no compound was filed as active; the % refers to the polarisation; negative = inhibition;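 also: % of control where 0% means no effect; inhibitors lower the polarisation; unlabelled MLL peptide was the positive control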
# ClpP mod: qHTS Assay for Activators of ClpP. ATP-dependent Clp protease proteolytic subunit (Bacillus subtilis (strain 168)), P80244. purified B. subtilis ClpP, FRET peptide cleavage, 20 min. Potency, µM (series often up to 57.5 µM), without a hit: at the highest dose activity change, negative = active. 340,000 tested, 1.9% active. AID 651965, 2013; active = well fitted falling curve with a large enough effect; inconclusive = small, poorly fitted or top-dose-only effect; inactive = no such curve, though single readings can be large or run the other way; also: potency is read from the fitted curve at half-maximal effect; the source files actives as falling curves though it sought activators and does not explain the sign; nearly all actives have a fitted effect of over 65% in size; many hits overshoot -100%
# Target sequence (P80244 whole entry, looked up): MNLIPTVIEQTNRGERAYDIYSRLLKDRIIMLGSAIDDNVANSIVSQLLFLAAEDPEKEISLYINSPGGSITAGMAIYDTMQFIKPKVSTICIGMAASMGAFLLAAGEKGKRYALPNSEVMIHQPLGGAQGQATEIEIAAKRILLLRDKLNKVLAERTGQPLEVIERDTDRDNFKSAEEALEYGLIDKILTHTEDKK
#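 ClpP 10 microg/mL final, pH 8 Tris/KCl buffer with BSA, glycerol, Tween-20; compound pinned in; FRET-FV substrate; RT 20 min; Ex320/Em430; ΔFRET vs ADEP 5.8 microM, DMSO, no enzyme.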
# TRPV1 potentiator: enhances activation of the human vanilloid receptor TRPV1; TRPV1-expressing cells, Fluo-8 calcium influx, capsaicin EC20 potentiation; host cell line not named in the record; control for the full effect not named in the record; Q8NER1; potentiation, % at 8.33 µM; 320,000 tested, 0.02% active; active means potentiation above 80%; inconclusive means 30% to 80%; inactive means below 30%; also: 0% is about no effect
#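 TRPV1-expressing cells were cultured overnight at 35.5C and loaded with Fluo-8 calcium dye for 40 to 90 min at room temperature. After a 10 s baseline, compound was added and calcium influx was read kinetically for 3 min (ex 480/em 520 nm).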
# The depositor's hits bear a star; ? = inconclusive; . = no result given; & = joins results of further samples; [ ] = remark or other dose.
Compound,gsp antagonist,TRPV1 potentiator,Menin-MLL FL inh,gsp ag,ClpP mod,Sfp inh,TRPML1 blocker
CCCc1c(C(=O)N/N=C/c2ccc(OCc3ccccc3)c(OC)c2)nnn1-c1nonc1N,-21%,0,-0.2,7%,-26%,19%,-10
O=c1[nH]cc(NCCc2ccccc2)c(=O)[nH]1,11%,5,-15,0%[15.4 µM],.,5%,13
CCOC(=O)C1(CCOc2ccccc2)CCN(CC2CC2)CC1,7%,-6,1.1,4%[15.4 µM],-15%,13%,-8
CCCNC(=O)C(=O)NCC(c1ccc2c(c1)OCO2)N1CCN(c2ccc(F)cc2)CC1 (stereo not given),3%,-2,2.9,17%,0.2%,8%,-22
O=C(Nc1ccc(S(=O)(=O)N2CCCC2)cc1)c1cccnc1,3%,-4,3.3,-3%,-0.7%,17%,-3
O=c1cc(NC2CCCCC2)[nH]c(=O)[nH]1,1%,.,.,6%[15.4 µM],0.1%,.,-20
CCN(C(=O)CSc1nnc(-c2ccncc2)n1C)C1CCS(=O)(=O)C1 (stereo not given),7%,3,-1.6,?,0.2%,?,11
CCOc1cc(S(=O)(=O)NC2CC(C)(C)NC(C)(C)C2)ccc1Cl,7%,-9,-18,15%,-0.8%,2%,.
CCCCOc1ccc(CONS(=O)(=O)c2ccc(NC(C)=O)cc2)cc1Cl,-3%,-13,2.8,16%,1.7%,-15%,-2
CC1CN(C(=S)NC(=O)c2ccc([N+](=O)[O-])cc2)CC(C)O1 (stereo not given),-8%,-18,-0.1,-21%,-0.7%,4%,-1
CC(=O)c1cccc(NC(=O)c2ccc(NC(=O)CCS(=O)(=O)c3cccs3)cc2)c1,12%,25,-2.3,23%,.,6%,1
COc1cc(/C(C)=N/N2CCN(Cc3ccc(C)cc3)CC2)ccc1O,4%,?,-2.9,-55%[inhibitor],-0.8%,15%,.
CSc1ccccc1C(=O)NCCSc1ccc(C)cc1,3%,-16,1.5,-4%,.,-12%,-9
Cn1ccc(C(=O)N/N=C/c2ccncc2)n1,-3%,5,3.1,?,1.8%,4%,11
CC1SC(=NC(=O)c2ccco2)NC1=O (stereo not given),-2%,-4,-0.2,-49%[inhibitor],0.0%,-8%,-5
COc1ccc(-c2nc3cc(NC(=S)NC(=O)Cc4ccccc4)ccc3o2)cc1,8%,3,2.9,-21%,19%,-8%,6
CC(=O)N1CCSc2ccc(S(=O)(=O)NCc3ccccc3)cc21,4%,-16,-2.1,-8%,-1.2%,12%,-5
O=C(COC(=O)c1ccc([N+](=O)[O-])s1)Nc1ccc(F)cc1,2%,-22,.,-25%,-1.3%,.,-10
Cc1nc(N(C)Cc2ccccc2)c2nnn(Cc3ccccc3)c2n1,-1%,14,4.0,19%,-2.8%,-28%,-4
COc1ccc2nc(C)cc(N3CCN(c4ccccc4)CC3)c2c1,-16%,-7,-2.4,4%[15.4 µM],.,10%,23
Cc1cc2nc(/N=C(\N)NC(=O)N3c4ccccc4Sc4ccccc43)nc(C)c2cc1C,9%&8%,7,1.9,14%,-6.9%,7%,0&11
CCN(CC)C(=O)Cn1cc(C(=O)C(=O)N2CC=C(c3ccccc3)CC2)c2ccccc21,?,27,?,2%[15.4 µM],?,1%,27
CCCn1nc2cc(C(=O)NCCc3ccc(C)cc3)ccc2c1OCC,4%,26,0.7,.,3.9%,-3%,-1
Cc1cc(OC2CCCCC2)nc(NCc2ccccc2)n1,2%,11,0.4,13%[15.4 µM],.,17%,15
CC(C)Cn1c(N)c(C(=O)COC(=O)CC23CC4CC(CC(C4)C2)C3)c(=O)n(C)c1=O,?,-3,11,-5%,-4.8%,5%,22
Cc1ccc(NC(=O)CCn2cccc2)cc1,11%,-15,2.6,-2%,0.2%,0%,12
COc1ccc(NC(=O)CSc2nnc(C)s2)cc1S(=O)(=O)N1CCOCC1,-4%,1,.,?,-2.6%,.,6
Cc1cc2cc3c(cc2nc1SCc1ccccn1)OCCO3,11%,1,0.1,2%,-19%,5%,14
CCOC(=O)C1(Cc2ccc(Cl)cc2)CCN(C(=O)c2cnc(C)cn2)CC1,-11%,-18,-1.7,?,-0.8%,5%,8
Cc1ccc(CCSc2ccc(C(C)C)cc2)cn1,-19%,-17,9.5,-9%[15.4 µM],-0.5%,9%,78
COc1ccc(S(=O)(=O)N2CCOCC2)cc1NC(=O)C1CCCCN1S(=O)(=O)c1ccccc1 (stereo not given),0%,.,.,-24%,0.6%,.,-1
Cc1ccccc1CCNC(=O)C1CCN(S(=O)(=O)c2ccc(-n3cnnn3)cc2)CC1,-3%,-4,-2.0,12%,1.8%,-4%,-14
CC(C)CC(C(=O)Oc1ccc2c3c(c(=O)oc2c1)CCC3)N1C(=O)c2ccccc2C1=O (stereo not given),7%,8,-1.5,26%,3.7%,22%,19
Cc1cccc(N2CCN(C3=NC(=O)C(Cc4ccccc4)S3)CC2)c1 (stereo not given),?,-7,1.9,-2%,1.4%,-7%,1
CCOc1ccc(NC(=O)C2CCN(S(=O)(=O)c3c(C)n[nH]c3C)CC2)cc1,6%[15.4 µM],-7,-0.5,25%,-1.6%,2%,-18
CSc1nsc(SCC(=O)Nc2c(C)n(C)n(-c3ccccc3)c2=O)n1,2%,-1,6.6,-27%,1.3%,16%,11
CC1CCCC(n2cnc3cc(C(=O)O)ccc32)C1C (stereo not given),-12%,5,-12,-43%[inhibitor],-0.2%,16%,.
Cc1cc(C(=O)COC(=O)c2ccc(Br)o2)c(C)n1C,7%,2,-3.3,-6%[15.4 µM],.,8%,-10
CCOC(=O)C(Cc1c(F)cccc1F)(NC(C)=O)C(=O)OCC,6%,0,1.5,7%,0.5%,11%,2
O=C(NN1C(=O)NC2(CCCCC2)C1=O)c1cc(F)cc(F)c1,9%,4,.,-46%[inhibitor],-1.6%,.,-1
O=C(c1ccccc1)c1ccc(Oc2ncccn2)cc1,1%,-4,4.5,18%,0.2%,-3%,-12
Cc1ccc(N2C(=O)CN(Cc3sccc3C)C2=S)cc1C,-10%,-8,2.0,-13%,1.5%,-5%,4
Cc1cc(C)c2cc(CN(Cc3cccs3)Cc3nnnn3CC3CCCO3)c(=O)[nH]c2c1 (stereo not given),-12%,4,2.0,-34%[inhibitor],-8.0%,-8%,7
N#Cc1ccc(C(=O)N2CCN(S(=O)(=O)c3ccc(Cl)s3)CC2)cc1,1%,-2,.,-2%,-0.9%,.,-7
Cc1ccc(NC(=O)CSc2nn3c(=O)c(C)nnc3s2)cc1Cl,-4%,15,.,9%[15.4 µM],?,15%,-1
Cc1ccc(NC(=O)COC(=O)CCc2ccc(S(=O)(=O)N3CCOCC3)cc2)cc1F,4%,-4,-3.0,-8%[15.4 µM],.,-3%,2
N#Cc1ccc(C(=O)NC(=S)N2CCN(C=O)CC2)cc1,1%,.,.,-9%,.,.,38
CCOC(=O)N1CCC(NC(=O)C2CCN(S(=O)(=O)c3ccc4c(c3)oc(=O)n4C)CC2)CC1,-1%,12,0.5,-22%,.,22%,-20
O=C(COc1ccc(S(=O)(=O)N2CCOCC2)cc1Cl)NC1CC1,3%,-2,-2.5,2%[15.4 µM],-0.8%,8%,-6
Cc1ccc(NC(=O)CSc2nnc(CNC(=O)c3c(F)cccc3Cl)o2)cc1,7%,-17,4.4,-40%[inhibitor],1.5%,1%,1

# (list continues)
Compound,gsp antagonist,TRPV1 potentiator,Menin-MLL FL inh,gsp ag,ClpP mod,Sfp inh,TRPML1 blocker
CCN(CC)c1ccc(/C=N/NC(=O)CNC(=O)c2ccc3c(c2)OCCO3)cc1,-4%,3,2.4,-6%[15.4 µM],-1.0%,4%,6
Cc1ccc(Cl)cc1NC(=S)N(CCCN1CCOCC1)Cc1ccccn1,2%,-1,.,15%[15.4 µM],-1.7%,3%,-1
CCN1C[C@@H]2[C@@H]3C(=O)N(C)C(=O)[C@@H]3[C@](CC)(C1=O)N2C(=O)c1ccc(F)cc1,2%,.,.,-9%,-2.1%,.,4
O=C(COC(=O)[C@H](Cc1c[nH]c2ccccc12)NC(=O)c1cccs1)NCc1ccccc1,-11%,-10,0.3,0%,-2.3%,10%,19
Cc1ccc(Cn2c(C)nc3ccc([N+](=O)[O-])cc3c2=O)cc1,-4%,?,-0.2,-35%[inhibitor],0.4%,-5%,.
Fc1ccc(CSc2nc3ccccc3[nH]2)cc1,-18%,-15,-0.1,8%,-0.2%,2%,21
COc1ccc(-c2c(C#N)c(SCC(=O)c3cc4ccccc4oc3=O)nc(C)c2C(=O)Nc2ccccc2)cc1,-28%,6,-0.2,-2%,12%,-22%,12
Cn1cccc1C(=O)OCC(=O)Nc1sccc1C#N,-4%,.,.,4%,0.5%,.,12
O=C(O)c1ccc(N/N=C/C2=Cc3ccccc3OC2)cc1,-14%,4,3.9,3%,-6.3%,-4%,.
Cn1c(SCC#N)nc2ccccc2c1=O,9%,8,3.5,-14%,-1.1%&-4.6%,12%,22
CCn1c(Cn2nnc(-c3ccccc3)n2)nnc1SCC(=O)Nc1cccc(C)c1C,-15%,-21,2.4,-39%[inhibitor],1.0%,3%,1
CN(C)S(=O)(=O)c1ccc(C(=O)NCC(=O)N/N=C/c2ccccc2)cc1,5%,-16,2.5,9%,.,10%,35
Cc1ccc(C(=O)OCC(=O)N2CC(=O)Nc3ccccc32)s1,2%,4,-0.1,-20%,-1.9%,4%,1
CCCn1c(SC(C)C(=O)NC2CC2)nnc1-c1ccncc1 (stereo not given),12%,-1,.,-12%,0.1%,.,-4
Cc1ccc(S(=O)(=O)CCC(=O)N(C)C2CCCCC2)cc1,-3%,-17,-4.2,-69%[inhibitor],1.6%,3%,17
COC(=O)c1ccc2c(=O)n(C3CCCCC3)c(SCC#N)nc2c1,1%,1,0.0,?,-3.3%,5%,11
COC(=O)c1ccc(N2CCN(C)CC2)c(NC(=O)c2ccc(-c3ccc(Cl)cc3)o2)c1,17%,-2,.,?,-1.8%,10%,-11
O=S(=O)(Nc1ccc(N2CCOCC2)cc1)c1ccc(Cl)s1,-7%,8,-0.4,7%,2.1%,8%,-13

# Source: PubChem (National Center for Advancing Translational Sciences (NCATS))
